PABP FP inh – blocks human PABP binding to poly(A) RNA | fluorescence polarization | inhibition, % at 35 µM | 290,000 tested, 1% active;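 active means 50% or more with normal probe brightness, or confirmed in later tests; inconclusive means above 50% with abnormal brightness, or retests that disagree; inactive means below 50% or failed in later tests; about a fifth of its hits are not listed in these tables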;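 further: calls also rest on retests at 20 µM and on dose response follow-up; controls were probe without protein and protein plus probe with vehicle; some compounds called inactive have numbers as strong as hits; many hits fall short of the cut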
Target sequence (P11940 whole entry, looked up): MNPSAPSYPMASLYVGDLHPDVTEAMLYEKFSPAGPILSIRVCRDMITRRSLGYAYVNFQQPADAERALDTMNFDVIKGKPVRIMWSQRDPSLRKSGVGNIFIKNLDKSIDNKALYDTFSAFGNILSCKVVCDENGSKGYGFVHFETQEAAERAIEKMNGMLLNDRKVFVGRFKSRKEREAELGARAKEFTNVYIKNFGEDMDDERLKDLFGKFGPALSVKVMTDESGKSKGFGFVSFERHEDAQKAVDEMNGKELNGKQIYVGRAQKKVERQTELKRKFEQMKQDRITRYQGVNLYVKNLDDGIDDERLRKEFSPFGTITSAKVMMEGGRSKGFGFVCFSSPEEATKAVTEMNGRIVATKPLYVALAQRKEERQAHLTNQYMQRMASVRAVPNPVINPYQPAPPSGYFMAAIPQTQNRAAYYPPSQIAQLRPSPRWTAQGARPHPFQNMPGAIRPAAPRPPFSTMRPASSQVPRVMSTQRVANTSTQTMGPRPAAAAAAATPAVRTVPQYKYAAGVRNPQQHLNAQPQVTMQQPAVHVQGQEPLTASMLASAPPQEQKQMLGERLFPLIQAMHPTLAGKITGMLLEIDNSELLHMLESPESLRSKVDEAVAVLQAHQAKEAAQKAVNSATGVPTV
CSC inhib – blocks cancer stem cells | cancer stem cell-like cells viability, luminescence | inhibition, % at 7.5 µM | 300,000 tested, 1.1% active;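 active means mean at 75% or more and at least half the replicates too; inconclusive means mean and replicates disagree; tested in HMLE shEcad cells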;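 further: 0% = median of negative and 100% = median of positive control wells; the first replicate is given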
eIF4H inh – inhibitors of RNA binding by human eIF4H; Q15056; eIF4H fluorescence polarization binding assay; inhibition, % at 35 µM; 290,000 tested, 0.94% active; AID 2012;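 active means 50% or more with normal probe brightness, or confirmed in later tests; inconclusive means above 50% with abnormal brightness, or retests that disagree; inactive means below 50% or failed in later tests; about a fifth of its hits are not listed in these tables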;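 further: calls also rest on retests at 20 µM and on dose response follow-up; 0% = protein and probe with vehicle and 100% = probe without protein; strong numbers were not always called active; many hits fall short of the cut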
HIV Env fusion – inhibitors of HIV Env-mediated cell fusion | HeLa-JRFL Env/CEM21 cell fusion, luciferase | inhibition, % at 12.3 µM | 360,000 tested, 1.1% active | AID 651610;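 active means mean replicate inhibition score of at least 50 and every replicate individually at or above 50; inconclusive means only one of the two criteria met; inactive means mean below 50 and not all replicates reaching 50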;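 further: 0% = plate neutral controls and 100% = maraviroc near 300 nM; one replicate is shown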
Yeast UUG start – yeast start codon fidelity modulation. 350,000 tested, 0.13% active. S. cerevisiae UUG-firefly luciferase reporter, luminescence/redox ratio. activity score, % at 18.7 µM;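 active means replicate mean at a twofold rise or more, about +100% in these data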;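 further: firefly luciferase made from a UUG start codon reports start codon fidelity; reporter light over untreated wells divided by growth signal over untreated wells; some hits fall short of that in this replicate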
MT1-MMP act inh – MT1-MMP (human) activation inhibition; P50281; HT1080 RFP-PRO-GFP cells, GFP/RFP ratio fluorescence, overnight; percent of plate control window, DMSO zero; GFP/RFP ratio change, % at 20 µM; 360,000 tested, 0.061% active; AID 651647;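 active means GFP/RFP ratio change of at least 30% with cell ATP level not reduced by more than half and red fluorescence within 50% of control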; further: strong numbers were not always called active
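Assay system – RFP-PRO-GFP reporter HT1080 cells · Compound dosing – single dose of 20 µM compound, 1% DMSO final · Incubation – overnight compound exposure at 37 °C · Measure – GFP/RFP fluorescence ratio · Benchmarks – DMSO wells and RFP-L50D-GFP cells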
Rce1 inhib – inhibitors of yeast Ras-converting enzyme | yeast membranes, quenched prenylated peptide cleavage fluorescence | 290,000 tested, 0.27% active | calls only;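 active means fall in fluorescence gain of 50% or more versus controls, with final raw signal at or below 3038400; inconclusive means same 50% fall but final raw signal above 3038400; inactive means fall in fluorescence gain under 50%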;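 further: plate controls were neutral control wells for no effect and wells lacking membranes for full effect; tested at 10 µM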
Target sequence (Q03530 whole entry, looked up): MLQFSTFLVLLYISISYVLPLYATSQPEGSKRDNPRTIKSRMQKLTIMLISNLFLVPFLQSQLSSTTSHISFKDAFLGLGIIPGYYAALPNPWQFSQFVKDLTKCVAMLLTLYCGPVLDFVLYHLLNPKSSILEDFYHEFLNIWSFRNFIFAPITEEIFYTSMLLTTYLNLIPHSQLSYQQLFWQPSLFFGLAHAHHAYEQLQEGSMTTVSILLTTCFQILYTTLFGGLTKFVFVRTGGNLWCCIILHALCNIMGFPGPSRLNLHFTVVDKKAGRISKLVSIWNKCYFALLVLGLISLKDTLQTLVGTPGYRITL
eIF4H inh retest – also measured in eIF4H inh; calls as there; inhibition, %; compound at 20 µM; confirmation average;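 mean of two retest wells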
PABP FP inh retest – second read-out of PABP FP inh, no call of its own (marks repeat the call); inhibition, %; compound at 20 µM; confirmation repeats;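 mean of two retest wells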
MT1-MMP act inh RFP – also measured in MT1-MMP act inh; calls as there; RFP signal change, %; measured here: RFP expression control read;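 0 = vehicle wells; hits needed this value within 50% of zero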
Starred values were filed as active, the others as inactive; i = inactive; ? = inconclusive; . = no result given. This is a subset (hit frequency here may not be typical).

SMILES | PABP FP inh | CSC inhib | eIF4H inh | HIV Env fusion | Yeast UUG start | MT1-MMP act inh | MT1-MMP act inh RFP | Rce1 inhib | others
Cc1ccc(S(=O)(=O)/N=C(/Nc2nc(C)cc(C)n2)N2CCOCC2)cc1 | -5 | -13 | -5 | ? | -13 | 1 | 1 | i
COc1ccc(-c2ccc(-c3noc(C(C)C)n3)c(OC)n2)cc1 | -1 | 30 | 4 | . | -23 | 0 | 1 | i
Cn1c(=O)c2cc(NC(=O)NCc3ccc(F)cc3)ccc2n1C/C=C/c1ccccc1 | . | . | . | -44 | -16 | 10 | -1 | .
O=C(NCCCCNC(=O)c1cccnc1)c1cccnc1 | -2 | -2 | -5 | -40 | 1 | 2 | 2 | i
COc1ccccc1NS(=O)(=O)c1ccc(C(=O)N2CCN(c3ccccn3)CC2)cc1 | . | -4 | . | . | 7 | -1 | -9 | .
COc1cccc(N(CC(=O)NCC2CCCO2)C(=O)CCC(=O)Nc2nccs2)c1 (configuration not stated) | 4 | -1 | -12 | -8 | . | 0 | 1 | i
O=C(CSc1nc(-c2ccccc2)cc(=O)[nH]1)NCc1ccc2c(c1)OCO2 | 2 | 2 | 2 | . | -17 | -2 | 1 | i
COc1ccc(C2NC(=O)NC(C)=C2C(=O)OCC2CCCCC2)cc1OC (configuration not stated) | -2 | 7 | -4 | 20 | -1 | 0 | 1 | i
COc1ccc(N2CC(C(=O)NCCc3ccc(OC)c(OC)c3)CC2=O)cc1 (configuration not stated) | 3 | -8 | 4 | -23 | -19 | 1 | -2 | i
Cc1ccc(OCc2nnc(SCC(=O)NC3CCCCC3)n2C)cc1 | -1 | -7 | -7 | . | -16 | -2 | 2 | i
COc1ccc(OC)c(S(=O)(=O)N2CCC(C(=O)N3CCN(c4ccc(F)cc4)CC3)CC2)c1 | -2 | -11 | -12 | -5 | -11 | -1 | -14 | i
CCOC(=O)C1=CCC(c2ccco2)N(S(=O)(=O)c2ccc(C)cc2)C1 (configuration not stated) | . | . | . | 20 | -3 | 2 | -2 | .
Cc1cc2c(SCC(=O)NCC3CCCO3)ncnc2s1 (configuration not stated) | 3 | . | 6 | 2 | -25 | -2 | 2 | i
C=CCSc1nc2c(c(=O)[nH]1)C(C(C)C)C(C#N)=C(N)O2 (configuration not stated) | 8 | 2 | 6 | -3 | -17 | 1 | 3 | i
Cc1n[nH]c(=O)nc1N/N=C/c1cccs1 | 9 | 16 | 8 | -91 | -36 | 9 | 10 | i
Clc1ccc(-c2nnc(-c3ccccc3)o2)cn1 | -6 | -2 | -13 | -77 | 1 | -2 | 3 | i
CCCc1nc(NCc2ccco2)c(C#N)c2c1COC(C)(C)C2 | 5 | -5 | 9 | . | -1 | 3 | 1 | i
CSc1nnnn1-c1ccc(C)c(Cl)c1 | -12 | -6 | -4 | -71 | -15 | 0 | 3 | i
Cc1c(Cl)cccc1NC(=O)Cn1nnc(C(=O)NCc2cccs2)c1N | -1 | -4 | -17 | 1 | . | 0 | 4 | i
Cc1cccc(NC(=O)CSc2nc3c(c(=O)[nH]2)CCCC3)c1C | -5 | -4 | -1 | -37 | . | 8 | 10 | i
Cc1ccc(C(=O)N(CC(=O)NC2CCCC2)c2ccccc2Cl)s1 | -4 | -10 | -2 | 26 | 3 | 0 | 0 | i
CC1=CC(c2ccc(Cl)cc2)n2nc(NC(=O)CCCC(=O)O)nc2N1 (configuration not stated) | 0 | -17 | 4 | -2 | . | 2 | 4 | i
COc1cccc(/C=C/c2nc3c(cnn3-c3ccccc3)c(=O)[nH]2)c1 | 7 | 18 | -4 | 2 | . | 7 | -1 | i
S=C(NCCCN1CCOCC1)Nc1ccc(Cl)c(Cl)c1 | -1 | -7 | -8 | -8 | -13 | 3 | 6 | i
CC[C@@]1(C(=O)OC)N[C@H](CN(C)C(=O)Nc2ccccc2)[C@@H]2C(=O)N(Cc3ccccc3)C(=O)[C@@H]21 | . | . | . | 60* | -7 | 0 | 2 | .
COc1ccc(C2CC(=O)c3cnn(-c4nc(C)cc(C)n4)c3C2)cc1OC (configuration not stated) | -2 | -7 | -1 | 13 | -14 | 1 | 2 | i
CC1CC(=O)c2cc(-c3ccccc3)oc2C1 (configuration not stated) | . | . | . | -18 | 5 | -1 | 1 | .
Nc1cc(Cl)ccc1N1CCCCC1 | -9 | 36 | 4 | 1 | . | 0 | 6 | i
O=c1oc2ccccc2cc1-c1csc(NN=C2CCCCC2)n1 | 8 | 11 | -3 | . | -21 | -10 | -9 | i
CCOc1ccc(NC(=O)CN(C)C(=O)CN2C(=O)C3CCCCC3C2=O)cc1OCC (configuration not stated) | . | 13 | . | . | -3 | -5 | -3 | .
O=C(Nc1cccc(C(=O)NC2CCCCC2)c1)c1ccccc1 | 0 | . | -5 | 2 | -12 | 0 | -5 | i
CCC(=O)c1ccc(OCC(O)CNCc2ccc(F)cc2)cc1 (configuration not stated) | -6 | -17 | -12 | 5 | -10 | -1 | 1 | i
S=C(NCC1CCCCC1)Nc1cccnc1 | -10 | . | 0 | . | -13 | 3 | 6 | i
COc1ccccc1OCCNC(=O)C1CCN(C(C)=O)CC1 | -6 | -19 | -10 | 2 | -17 | -6 | 1 | i
CCOC(=O)N1CCN(C2=C(NS(=O)(=O)c3ccccc3)C(=O)c3ccccc3C2=O)CC1 | 8 | 17 | -13 | 9 | -6 | 4 | 7 | i
CCCCN(CC)CCCNC(=O)C1CCN(c2ncnc3c2sc2cccc(F)c23)CC1 | -4 | 11 | -3 | -2 | . | 1 | -3 | i
O=C(C1=C(O)C(=O)N(CCc2ccccc2)C1c1cccnc1)c1ccco1 (configuration not stated) | 13 | -3 | -5 | . | -27 | 4 | 4 | i
Cc1ccc(C(=O)Nc2nc(-c3ccccc3)c(-c3ccccc3)o2)cc1 | -9 | . | 1 | -17 | . | 6 | 4 | i
O=C(CN1CCN(Cc2ccccc2Cl)CC1)N/N=C/c1cccs1 | -1 | 1 | -5 | -2 | -27 | 1 | 2 | i
O=C(NCc1ccc2c(c1)OCO2)c1cc(-c2ccccc2)nn1CC1CC(c2cccnc2)=NO1 (configuration not stated) | . | 9 | . | -3 | -12 | -1 | 2 | i
CCCN1C=CC(=C/C=C(\C#N)C(=O)OCC)C=C1 | ? | 4 | ? | . | . | . | . | i
O=C1CSC(c2ccccn2)N1c1ccccc1 (configuration not stated) | -7 | -4 | -8 | . | -10 | 5 | 4 | i
COCCNC(=S)N1CCN(c2nc(-c3ccc(Cl)cc3)cs2)CC1 | 6 | 6 | 5 | 17 | -16 | 7 | -1 | .
CCCN(CCC)S(=O)(=O)c1ccc(NC(=O)c2cc(C(=O)OC)cc([N+](=O)[O-])c2)cc1 | 2 | 16 | -17 | -16 | -19 | 7 | 1 | i
CN(C)c1oc(-c2ccccc2Cl)nc1P(=O)(c1ccccc1)c1ccccc1 | 6 | 12 | -2 | -81 | -1 | -4 | -4 | i
CC(CCc1ccco1)NC(=O)c1cc2c(-c3ccccc3F)nn(C)c2s1 (configuration not stated) | -2 | 19 | -6 | 14 | -10 | -5 | -11 | i
N#Cc1c(-c2ccccc2)c(-c2ccccc2)n(Cc2ccco2)c1NC(=O)c1cccs1 | -4 | 12 | -5 | -285 | -20 | -35 | -21 | i
N#Cc1cc(-c2ccc(Cl)cc2)cn(Cc2c(Cl)cccc2Cl)c1=O | -4 | . | -4 | 12 | -7 | 1 | -4 | i
CC(=O)N1CCN(S(=O)(=O)c2cccc(C(=O)NCCC3=CCCCC3)c2)CC1 | . | 6 | . | . | -8 | -4 | 1 | i
CC1=C(C#N)CCC(=O)N1Cc1c(F)cccc1Cl | -12 | 10 | 1 | 15 | . | 4 | 4 | .

Structural class: the entries above with two or more sulfur atoms (two)
SMILES | PABP FP inh | CSC inhib | eIF4H inh | HIV Env fusion | Yeast UUG start | MT1-MMP act inh | MT1-MMP act inh RFP | Rce1 inhib | others
Cc1cc2c(SCC(=O)NCC3CCCO3)ncnc2s1 (configuration not stated) | 3 | . | 6 | 2 | -25 | -2 | 2 | i
COCCNC(=S)N1CCN(c2nc(-c3ccc(Cl)cc3)cs2)CC1 | 6 | 6 | 5 | 17 | -16 | 7 | -1 | .

Other records.
SMILES | PABP FP inh | CSC inhib | eIF4H inh | HIV Env fusion | Yeast UUG start | MT1-MMP act inh | MT1-MMP act inh RFP | Rce1 inhib | others
O=C(Nc1cccc(Cl)c1)OCCOc1ccccc1 | 3 | 9 | 28 | -15 | -8 | 11 | 2 | i
CCOC(=O)N1CCN(S(=O)(=O)c2ccc([N+](=O)[O-])cc2)CC1 | 55 | -7 | 4 | -2 | . | 1 | 2 | i | eIF4H inh retest=4;PABP FP inh retest=-4
CC(C)[C@H](NC(=O)c1ccccc1F)C(=O)NC1CCCCCCC1 | . | 6 | . | . | -5 | -4 | -2 | .
CN(C)/C=C1\SC(=S)N(c2ccc(F)cc2)C1=O | 9 | -4 | 2 | -17 | . | 5 | 11 | i
O=C1C2C3C=CC([C@@H]2C(=O)N1Cc1cccnc1)C31CC1 (some centres not stated) | -3 | 9 | -3 | -231 | 8 | -7 | 1 | i
O=C(Cc1cccc(NC(=O)C2CCN(C(=O)CCc3ccccc3)CC2)c1)Nc1cccc(C(=O)N2CCCCC2)c1 | . | . | . | 1 | 9 | 2 | -9 | .
Cc1nnc(SC(C(=O)Nc2ccc(Cl)c([N+](=O)[O-])c2)c2ccccc2)[nH]c1=O (configuration not stated) | 11 | . | 2 | 6 | 1 | -3 | -2 | i
COc1ccc(O)c(C(=O)c2cnc3onc(C)c3c2)c1 | 8 | -7 | -4 | -93 | -4 | -1 | 0 | i
Cc1ccccc1OCC(=O)Nc1ccc2c(c1)COC2=O | 6 | -6 | 13 | -75 | -16 | 3 | 2 | i
CCC1(C)Cc2c(sc3nc(SC)[nH]c(=S)c23)CO1 (configuration not stated) | 19 | . | 28 | . | . | . | . | i
O=C(COc1ccc(Cl)cc1)Nc1ccc(Cc2ccncc2)cc1 | -1 | 28 | 3 | 15 | -7 | 1 | -4 | i
Cc1cc(C)c(C2C3=C(Nc4c2c(C)nn4-c2ccccn2)c2ccccc2C3=O)c(C)c1 (configuration not stated) | -1 | 27 | -7 | . | -16 | -16 | -23 | i
COCCNC(=O)CN1C(=O)/C(=C/c2ccccc2)Oc2ccc(C(C)(C)C)cc21 | 2 | -1 | -9 | 8 | -12 | -4 | -5 | i
Cc1ccc(CNC(=O)CCCc2cn(C)c3ccccc23)cc1 | 11 | -16 | 3 | 4 | . | -1 | 1 | i
CCN(C(=O)CSc1nnnn1-c1cc(C)ccc1OC)C1CCS(=O)(=O)C1 (configuration not stated) | 1 | -7 | 1 | . | -9 | -1 | 1 | i
CC12CCC(C(=O)NCc3ccccc3Cl)(OC1=O)C2(C)C (configuration not stated) | 0 | -8 | -6 | 2 | 2 | -1 | 1 | i
CCOC(=O)c1ccc(N2C(=O)CC(N(Cc3ccc4c(c3)OCO4)C(=O)Nc3ccccc3)C2=O)cc1 (configuration not stated) | 1 | -1 | 6 | . | -3 | 4 | -4 | i
COc1ccc(-c2sc3ccccc3c2C#CCCO)cc1 | 4 | 92* | 2 | 2 | -10 | 0 | -2 | i
COc1cc(C2C3C(=O)N(c4ccccc4)C(=O)C3ON2c2ccccc2)ccc1O (configuration not stated) | 14 | 6 | 9 | -17 | 18 | -1 | -4 | i
CCc1nc2c(OCCC3CCCCC3)cccn2c1N(C)C(=O)c1ccccc1F | . | . | . | 7 | -4 | -10 | -5 | .

Screening data from PubChem BioAssay.
